# Assay outcomes from PubChem BioAssay.
# Mtb hypoxia rep = PubChem AID 1159583. M. tuberculosis hypoxia-regulated fluorescent reporter, fluorescence. 300,000 compounds, 0.1% hits. fluorescence inhibition, % (concentration not given with the values);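 active = 35 to 45% if threefold the growth effect, above 45% if 1.5-fold the growth effect; inactive = the rest, general growth blockers included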;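 also: wells of about 50 µL received 100 nL stock; 0% = vehicle wells and 100% = reference inhibitor wells; whole bacteria with a GFP reporter of the hypoxia response; strong numbers were not always called active; many hits fall short of the cut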
# Autofluor counter = flagged as autofluorescent in microsphere protease counterscreen; compound autofluorescence counterscreen, microsphere flow cytometry; active compounds read high; fluorescence intensity (concentration not given with the values); 360,000 compounds, 3.1% hits;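 active = at least 3 SD above the mean of all compounds, about 16000 in these data; inconclusive = too few beads counted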;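 also: 100 nL of 1 mM stock went into each well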
# BJeLR lethal = MLPCN primary cell-based screen for lethality selective to Ras in HRASV12 cells | BJeLR (HRASV12) viability, CellTiter-Glo ATP luminescence, 48 h; reference of the scale not given here | inhibition, % (no concentration beside the values) | 300,000 compounds, 0.17% hits;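 active = replicate mean above 50%; inconclusive = above 50% but judged a plate artefact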;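 also: 50 nL library stock added to about 25 µL; numbers are from one replicate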
# RN4220 kill = growth inhibition of S. aureus RN4220, primary screen, OD600 | 16 h | 330,000 compounds, 0.33% hits | inhibition, % (concentration not given with the values) | AID 1259311, 2017;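 active = z-score of -3 or lower and OD600 up to 0.18 on both plates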;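 also: plate controls were untreated cells for no effect and reference antibiotic for full effect; stock transfer was 100 nL into about 80 µL; one replicate is shown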
# Sa ugtP lethal = growth inhibition of ugtP-null S. aureus, primary screen, RN4220 ugtP deletion, OD600; 16 h; some inactives read as strong as hits; growth inhibition, % (test concentration not listed); 330,000 compounds, 0.54% hits;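 active = z-score under -3 and OD600 up to 0.15 on both plates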;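 also: plate controls were untreated wells for no effect and antibiotic for full effect; wells of about 80 µL received 100 nL stock; the first replicate is given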
# PrP 5UTR inh = inhibition of PrP 5' UTR reporter expression; inhibition, % (concentration not given with the values); 340,000 compounds, 0.35% hits; cell-based PrP 5' UTR mRNA reporter, plate reader;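 active = every replicate at 50% or more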;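 also: 0 = median of the neutral control wells; tested in H4 reporter cells; numbers are from one replicate; inactives centre near -14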
# Mtb hypoxia rep growth = second read-out of Mtb hypoxia rep, no call of its own (marks repeat the call); growth inhibition, %; measured here: M. tuberculosis growth (absorbance);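 0% = vehicle and 100% = reference antibiotic; read after six days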
# Starred values were filed as active, the others as inactive; ? = inconclusive; nt = no result given.
# Letters: A = Mtb hypoxia rep; B = Mtb hypoxia rep growth; C = Autofluor counter; D = BJeLR lethal; E = RN4220 kill; F = Sa ugtP lethal; G = PrP 5UTR inh
Cc1c(Cc2ccccc2)c(=O)oc2c(C)c(OCC(=O)N3CCC(C(=O)O)CC3)ccc12
  A: nt | B: nt | C: 5941 | D: 2 | E: 7.8 | F: -12 | G: -14
O=C(NCCCNC(=O)c1ccc(Cl)cc1Cl)c1ccco1
  A: 4 | B: 8 | C: 3452 | D: 2 | E: 1.2 | F: 4 | G: -26
CCC1=NN2C(=N)C(=Cc3cccn3-c3ccc(OC)cc3)C(=O)N=C2S1
  A: 6 | B: 1 | C: nt | D: nt | E: 5.9 | F: -5 | G: nt
CCOC(=O)CSCC(NC(=O)OC(C)(C)C)C(=O)OCC (centres undefined)
  A: nt | B: nt | C: 2827 | D: 3 | E: -0.6 | F: 10 | G: -12
Cc1ccc(C(=O)NCCN2C3=NC[C@@H](Cc4ccccc4)N3C[C@H]2Cc2ccc(O)cc2)cc1Br
  A: nt | B: nt | C: 4300 | D: -13 | E: nt | F: nt | G: -16
CC(=O)Nc1ccc(SCC(=O)Nc2ccccc2N2CCOCC2)cc1
  A: -3 | B: 5 | C: 3687 | D: nt | E: 3.1 | F: 0 | G: 0
CCc1ccc(C(C)=NNC(=O)c2c[nH]c3ccccc23)s1
  A: 6 | B: 1 | C: nt | D: nt | E: 3.7 | F: -2 | G: nt
CCN(C(=O)Cc1c(C(=O)O)[nH]c2ccccc12)c1cc(OC)ccc1OC
  A: 7 | B: 9 | C: 20129* | D: 13 | E: 9.8 | F: -3 | G: -13
CCN(CC)C(=O)COc1coc(CN2CCN(c3ccc(F)cc3)CC2)cc1=O
  A: -1 | B: -1 | C: 5362 | D: 1 | E: 2.5 | F: -3 | G: -18
CN(CCO)CC(O)Cn1cnc2c1c(=O)n(C)c(=O)n2C (centres undefined) (tested in a mixture with another compound)
  A: -6 | B: -7 | C: 6063 | D: -15 | E: 3.5 | F: 6 | G: -9
O=C(Nc1cccc(O)c1)c1cnn2cccnc12
  A: 3 | B: 6 | C: 19751* | D: 5 | E: 4.8 | F: 20 | G: -32
COc1cccc(CCN2CCC(CNS(=O)(=O)c3cc(-c4cc(C)no4)ccc3C)CC2)c1
  A: -15 | B: -6 | C: 6526 | D: 11 | E: -3.9 | F: -7 | G: -12
O=[N+]([O-])c1ccc(N2CCN(Cc3ccc(Br)o3)CC2)cc1
  A: 2 | B: 6 | C: 3429 | D: 5 | E: 8.2 | F: 9 | G: -17
CCc1cccc(CC)c1NC(=S)Nc1ccc2cn[nH]c2c1
  A: 8 | B: 4 | C: 5122 | D: -3 | E: 3.3 | F: 11 | G: -6
CS(=O)(=O)N(Cc1ccc(C(=O)N2CCc3ccccc3C2)cc1)c1ccccc1
  A: -5 | B: 4 | C: 4202 | D: 9 | E: -0.8 | F: -2 | G: -30
Nc1nc2sc3c(c2cc1C(=O)NCC(=O)O)CCCC3
  A: -3 | B: 3 | C: 3662 | D: 16 | E: 1.0 | F: -6 | G: -10
CC(=O)N(CCOc1ccccc1)CCOc1ccccc1
  A: 4 | B: 8 | C: 5606 | D: 1 | E: 3.4 | F: 1 | G: -14
N#Cc1ccccc1S(=O)(=O)N1CCN(C(=O)Cc2n[nH]c(=O)c3ccccc23)CC1
  A: 13 | B: 7 | C: 4077 | D: nt | E: 2.5 | F: 0 | G: -4
Cc1cc(C)c2nc(SC(C)C#N)cc(C)c2c1 (centres undefined)
  A: 12 | B: 6 | C: 2908 | D: -9 | E: 9.1 | F: 22 | G: -18
O=C(N/N=C/C(c1ccccc1)c1ccccc1)c1ccccc1F
  A: nt | B: nt | C: 3509 | D: -7 | E: nt | F: nt | G: -24
CCn1c(=O)cc(OCC(=O)N2CCCC2)c2ccccc21
  A: nt | B: nt | C: 5898 | D: -8 | E: 2.2 | F: 10 | G: -14
O=c1c2ccccc2nc(SCCN2CCCCC2)n1CCc1ccccc1
  A: 3 | B: 15 | C: 5075 | D: 8 | E: 3.0 | F: -9 | G: -21
CCC1CCCCN1C(=O)CSc1nnc(CNC(=O)c2ccco2)o1 (centres undefined)
  A: nt | B: nt | C: 4669 | D: -2 | E: 1.9 | F: 8 | G: -13
CC(=NNC(=O)CNc1cccc(Cl)c1C)c1cccs1
  A: -4 | B: -2 | C: nt | D: nt | E: 0.4 | F: 1 | G: nt
CC(NC(=O)COC(=O)c1ccc2c(c1)OCCO2)c1ccccc1 (centres undefined)
  A: -4 | B: 1 | C: 2823 | D: nt | E: -6.7 | F: -11 | G: 13
CC1=NN(c2ccc(Cl)c(C(=O)O)c2)C(=O)/C1=C\c1ccc(-c2ccc(C(=O)O)cc2)o1
  A: -4 | B: 2 | C: 2575 | D: 7 | E: 8.5 | F: 4 | G: -9
O=S(=O)(Cc1ccccc1)Nc1cccc(Br)c1
  A: 1 | B: 0 | C: 4027 | D: 5 | E: 9.0 | F: 6 | G: -21
Cn1c(SCc2c(F)cccc2Cl)nc2c(c1=O)SCC2
  A: 6 | B: -4 | C: 4875 | D: 19 | E: 2.1 | F: 7 | G: -14
CCOc1cccc(/C(O)=C2/C(=O)C(=O)N(CCN3CCOCC3)C2c2ccncc2)c1 (centres undefined)
  A: 7 | B: 12 | C: nt | D: -1 | E: 8.8 | F: 2 | G: nt
CC1(C)CC(=O)C2=C(C1)Nc1ccccc1NC2c1cccs1 (centres undefined)
  A: 2 | B: 8 | C: 4105 | D: 8 | E: 3.3 | F: 3 | G: -14
N#Cc1ccc(CSc2nnc(-c3ccccn3)n2-c2ccccc2)cc1
  A: 5 | B: 8 | C: 2869 | D: 4 | E: 9.6 | F: 3 | G: -10
CN(C1CCCCC1)S(=O)(=O)c1cn(C)c(=O)n(C)c1=O
  A: 0 | B: 1 | C: 3598 | D: nt | E: 0.7 | F: 3 | G: -17
O=C(NCc1ccc(F)cc1)c1ccc2c(=O)n3c(nc2c1)CCCCC3
  A: nt | B: nt | C: 6190 | D: 0 | E: -0.2 | F: 6 | G: 3
CC12CCC(C(=O)NC(c3ccccc3)c3ccccc3)(OC1=O)C2(C)C (centres undefined)
  A: 6 | B: 9 | C: 22368* | D: -22 | E: -2.8 | F: 6 | G: -22
O=C1CSC(=S)N1c1ccc(Cl)c(Cl)c1
  A: 3 | B: -7 | C: 4159 | D: 2 | E: 2.6 | F: 5 | G: -27
Cc1nc2c(=O)n(C)c(=O)nc-2n(C)n1
  A: nt | B: nt | C: 2811 | D: 36 | E: 37 | F: 39 | G: -7
COc1ccc(C(=O)NCc2ccc(C)cc2)cc1S(=O)(=O)N1CCCc2ccccc21
  A: 9 | B: 12 | C: 10383 | D: 1 | E: 2.2 | F: -9 | G: -21
CCOc1ccccc1CNc1nc2nc3c(c(=O)n2[nH]1)CCC3
  A: nt | B: nt | C: 4772 | D: -3 | E: 1.1 | F: 8 | G: -10
COC(=O)C1=C(c2cc3ccccc3o2)C[C@@H]2CC[C@H]1N2C
  A: -1 | B: 8 | C: 4201 | D: nt | E: -13 | F: -8 | G: -20
CC(Oc1ccccc1)C(=O)Nc1nnc(S(=O)(=O)N2CCCCCC2)s1 (centres undefined)
  A: 0 | B: -6 | C: 5403 | D: 1 | E: 0.5 | F: 1 | G: -14
O=C(c1ccc(C(=O)N2CCOCC2)s1)N1CCOCC1
  A: nt | B: nt | C: ? | D: 6 | E: -1.3 | F: 4 | G: -15
NC(=O)c1ccsc1NC(=O)COC(=O)c1ccc(Cl)nc1
  A: -3 | B: -3 | C: ? | D: 5 | E: -0.8 | F: 2 | G: 3
CC(C)CCN1CCN(Cc2ccc(Oc3ncccn3)cc2)CC1CCO (centres undefined)
  A: 0 | B: -6 | C: 4396 | D: 5 | E: -0.4 | F: 5 | G: -26
Cc1ccccc1Cn1nnc2c1C(=O)c1ccccc1C2=O
  A: 6 | B: -6 | C: ? | D: -6 | E: 39 | F: 51 | G: -16
O=C(O)/C(=C\c1ccccc1OC(F)F)c1ccc(-c2ccccc2)cc1
  A: 14 | B: 4 | C: 5903 | D: -6 | E: 19 | F: -16 | G: -9
O=C(c1ccc(COCC(F)(F)F)cc1)N1CCN(c2ccccn2)CC1
  A: 8 | B: 5 | C: 4099 | D: -1 | E: 2.0 | F: -1 | G: -33
OCC1(CCOc2ccccc2)CCN(Cc2cn[nH]c2-c2ccccc2)CC1
  A: 4 | B: 3 | C: 2580 | D: 11 | E: 1.2 | F: -1 | G: -1
CCOC(=O)C1(CCOc2ccccc2)CCN(Cc2ccc(F)c(OC)c2)CC1
  A: 6 | B: 5 | C: 4428 | D: -3 | E: 0.7 | F: 3 | G: -14
O=C(/C=C/c1ccc2c(c1)OCO2)NCCCN1CCOCC1
  A: -7 | B: 8 | C: 10469 | D: 1 | E: 1.5 | F: 0 | G: -34
Cc1ccc(C(=O)ON=Cc2ccc(N3CCOCC3)c([N+](=O)[O-])c2)cc1
  A: 2 | B: -3 | C: nt | D: nt | E: 2.2 | F: 9 | G: nt

# Some of the entries so far, with tabs:
Compound	Mtb hypoxia rep	Mtb hypoxia rep growth	Autofluor counter	BJeLR lethal	RN4220 kill	Sa ugtP lethal	PrP 5UTR inh
O=C(NCc1ccc(F)cc1)c1ccc2c(=O)n3c(nc2c1)CCCCC3	nt	nt	6190	0	-0.2	6	3
CC12CCC(C(=O)NC(c3ccccc3)c3ccccc3)(OC1=O)C2(C)C (centres undefined)	6	9	22368*	-22	-2.8	6	-22

# Next section:
# Letters: A = Mtb hypoxia rep; B = Mtb hypoxia rep growth; C = Autofluor counter; D = BJeLR lethal; E = RN4220 kill; F = Sa ugtP lethal; G = PrP 5UTR inh
COc1ccc(OC)c(Cc2nnc(CCC(=O)NCc3ccc(C)s3)o2)c1
  A: 5 | B: 5 | C: 4213 | D: -2 | E: -1.7 | F: 0 | G: -13
O=Cc1cn(CCC(=O)O)nc1-c1cc2ccccc2o1
  A: 4 | B: -3 | C: 8849 | D: 17 | E: 3.4 | F: -1 | G: -14
C[C@H]1CCCC(=O)CCCCCc2cc(O)cc(O)c2C(=O)O1
  A: nt | B: nt | C: 5382 | D: 6 | E: nt | F: nt | G: -9
COc1ccccc1NS(=O)(=O)c1cc(C(=O)N2CC(C)CC(C)C2)ccc1C (centres undefined)
  A: -2 | B: 3 | C: 22186* | D: 0 | E: 1.3 | F: -16 | G: 4
CC1=C(C)CC(C(=O)NC(C)CCc2ccccc2)C(C(=O)O)C1 (centres undefined)
  A: 5 | B: 6 | C: 4711 | D: 1 | E: 0.2 | F: 7 | G: -28
Cc1cc(C(=O)COC(=O)C2CCN(C(=O)c3ccc(Cl)cc3)CC2)c(C)n1CC1CCCO1 (centres undefined)
  A: 13 | B: 12 | C: 4274 | D: 8 | E: 9.5 | F: 2 | G: -5
Cc1ccc(C(=O)CCC(=O)NCc2ccc(Cl)cc2)cc1
  A: 12 | B: 7 | C: 3976 | D: nt | E: 0.7 | F: -1 | G: -32
CCCCOc1ccc(C(=O)OCC(=O)c2c(N)n(C)c(=O)n(C)c2=O)cc1
  A: 11 | B: 2 | C: nt | D: nt | E: 3.8 | F: 11 | G: -17

# Molecules listed so far that contain a thiophene ring, fused or not, in the order listed:
# Letters: A = Mtb hypoxia rep; B = Mtb hypoxia rep growth; C = Autofluor counter; D = BJeLR lethal; E = RN4220 kill; F = Sa ugtP lethal; G = PrP 5UTR inh
CCc1ccc(C(C)=NNC(=O)c2c[nH]c3ccccc23)s1
  A: 6 | B: 1 | C: nt | D: nt | E: 3.7 | F: -2 | G: nt
Nc1nc2sc3c(c2cc1C(=O)NCC(=O)O)CCCC3
  A: -3 | B: 3 | C: 3662 | D: 16 | E: 1.0 | F: -6 | G: -10
CC(=NNC(=O)CNc1cccc(Cl)c1C)c1cccs1
  A: -4 | B: -2 | C: nt | D: nt | E: 0.4 | F: 1 | G: nt
CC1(C)CC(=O)C2=C(C1)Nc1ccccc1NC2c1cccs1 (centres undefined)
  A: 2 | B: 8 | C: 4105 | D: 8 | E: 3.3 | F: 3 | G: -14
O=C(c1ccc(C(=O)N2CCOCC2)s1)N1CCOCC1
  A: nt | B: nt | C: ? | D: 6 | E: -1.3 | F: 4 | G: -15
NC(=O)c1ccsc1NC(=O)COC(=O)c1ccc(Cl)nc1
  A: -3 | B: -3 | C: ? | D: 5 | E: -0.8 | F: 2 | G: 3
COc1ccc(OC)c(Cc2nnc(CCC(=O)NCc3ccc(C)s3)o2)c1
  A: 5 | B: 5 | C: 4213 | D: -2 | E: -1.7 | F: 0 | G: -13
